Screening data: PubChem, National Center for Advancing Translational Sciences (NCATS)
AmpC nodet inh: Promiscuous and Specific Inhibitors of AmpC Beta-Lactamase (assay without detergent); Potency, µM (series often up to 28.7 µM), for the others: at the highest dose activity change, negative = inhibition; AID 585, 2007; P00811; AmpC nitrocefin hydrolysis, absorbance 480 nm, no detergent; potencies from a single point are estimates; hit rate 1.8% among 71,000; active = falling curve, for most hits resting on a single point; inconclusive = weak or doubtful change; inactive = flat or rising curve; also: % of control where 0% means no effect; about half of the hits show no inhibition at the top dose; a quarter of the inactives give rising signals
Target sequence (P00811 whole entry, looked up): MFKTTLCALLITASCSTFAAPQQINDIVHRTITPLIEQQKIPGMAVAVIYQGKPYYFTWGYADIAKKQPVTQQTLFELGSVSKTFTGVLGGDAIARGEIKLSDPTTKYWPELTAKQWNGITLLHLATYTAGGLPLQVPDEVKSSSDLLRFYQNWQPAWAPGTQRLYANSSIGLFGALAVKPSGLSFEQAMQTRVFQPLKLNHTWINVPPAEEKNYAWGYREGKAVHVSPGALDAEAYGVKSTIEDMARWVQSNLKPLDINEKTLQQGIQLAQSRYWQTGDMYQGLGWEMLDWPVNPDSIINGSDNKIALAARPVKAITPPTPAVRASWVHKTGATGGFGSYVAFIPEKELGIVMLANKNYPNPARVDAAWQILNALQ
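AmpC, 20 mM phosphate pH 7.0; 15 min cpd preinc, RT; start with nitrocefin (800 uM stock); A480 kinetic read, 20 s intervals, 4 min. No-enzyme wells = negative control.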
An asterisk follows results filed as active; u = inconclusive; & = joins results of further samples; [ ] = another dose, or the depositor's remark. Potency is read from the fitted curve at half-maximal effect.

SMILES | AmpC nodet inh
O=C(O)C1C(c2ccccc2)C(C(=O)OCc2ccco2)C1c1ccccc1 (centres undefined) | -12%
CS(=O)(=O)N(CC(=O)NCCC1=CCCCC1)C1CCCCC1 | 79%
CCOc1ccc(C(=O)NCc2ccncc2)cc1OCC | -11%
Cc1cc(C(=O)OCC(=O)c2ccc(Br)s2)no1 | -22%
C=CCn1c(=O)/c(=C/c2ccc(C)o2)s/c1=C(/C#N)C(=O)c1ccccc1 | u
C=CCNC(=O)C1CC(=O)N(c2ccc(OCC(=O)Nc3ccccc3)cc2)C1 (centres undefined) | 15%
O=C(CSc1nc2ccccc2c(=O)n1CCCC(=O)N1CCCC1)NCc1ccco1 | 56%
COCc1cc(C)nc(NC2CCCCC2)c1C#N | 7%
COc1ccc(NS(=O)(=O)Cc2ccccc2Cl)cn1 | -6%
COc1ccc(NC(=O)C23CCC(C)(C(=O)C2)C3(C)C)cc1 (centres undefined) | 1%
CC(=O)N1CCc2cc(S(=O)(=O)NCCC(=O)NC3CCCc4ccccc43)ccc21 (centres undefined) | 32%
CC1CC(C)CN(C(=O)Cn2c(=O)n(CCCCC(=O)NC3CCCC3)c(=O)c3ccccc32)C1 (centres undefined) | 91%
CCOc1cc(C)c(S(=O)(=O)NC2CCCCC2)cc1C | 9%
COc1ccc2c(c1)CCc1c(C(=O)NCc3ccco3)noc1-2 | -20%
Cc1cc(C)c2cc(CN(CCN3CCCC3)C(=O)Nc3ccc(F)cc3)c(=O)[nH]c2c1 | 51%
COc1ccc(-n2c(Cc3cc(=O)[nH]c(=O)[nH]3)nnc2SCC(=O)Nc2ccccc2)cc1 | u
Cc1cc2n(n1)C(c1ccc3c(c1)OCO3)Nc1c(C)cccc1-2 (centres undefined) | 88%
O=C1C=C(NCc2ccco2)C2(CCCCC2)O1 | 6%
Cc1[nH]c(=O)[nH]c(=O)c1CSc1nnc(CCCCCNC(=O)OC(C)(C)C)o1 | 19%
Cc1cc(C(=O)CSc2nc3ccccc3[nH]2)c(C)n1C | -2%
CC(C)(C)c1ccc(OCC(O)CS(=O)(=O)c2ccccn2)cc1 (centres undefined) | 54%
COC(=O)CCC(=O)COc1ccccc1C#N | 5%
O=C(CCc1nc2ccccc2[nH]1)N1CCc2ccccc2C1 | 8%
COc1ccccc1OCCCCNC(C)(C)C | -8%
CN1CCN(S(=O)(=O)c2cccc(S(=O)(=O)c3ccc(Cl)cc3)c2)CC1 | 99%
(list continues)
SMILES | AmpC nodet inh
NS(=O)(=O)c1cc2c(cc1Cl)N[C@@H]([C@@H]1C[C@@H]3C=C[C@H]1C3)NS2(=O)=O | -12%&-9%
COCCn1c(=O)[nH]c2cc(C(=O)NC(C)C)ccc2c1=O | 11%
COc1cccc(/C(O)=C2/C(=O)C(=O)N(CCN(C)C)C2c2ccccn2)c1 (centres undefined) | 8%
COc1cccc(Nc2ncc3nc(C)c(=O)n(CCC#N)c3n2)c1 | 24%
c1cncc(-c2nn[nH]n2)c1 | -14%
Cc1c(C(=O)O)oc2ccc(S(=O)(=O)N3CC(C)CC(C)C3)cc12 (centres undefined) | -10%
O=C(NC1CC1)c1ccc(S(=O)(=O)NC2CCCCCC2)cc1 | -12%
Cc1nc(N2CCC(C(N)=O)CC2)c2nnn(Cc3ccccc3)c2n1 | 28%
O=C(C1CC(=O)N(c2ccc(F)c(Cl)c2)C1)N1CCC2(CC1)OCCO2 (centres undefined) | 10%
O=C(Nc1ccc(Oc2ccc(NC(=O)C3CCCO3)cc2)cc1)C1CCCO1 (centres undefined) | 41%
Cc1cccc(OCc2nnc(SCC(=O)OC3CCCCC3)o2)c1 | 8%
O=C(CSc1nc2[nH]ncc2c(=O)n1-c1ccccc1)c1ccc2c(c1)OCCO2 | 55%
O=C(NC1CCCCC1)NC1(C(=O)N2CCN3CCCC3C2)CCCCC1 (centres undefined) | 6%
CCCOC(=O)c1ccc(Oc2c(-c3ccc(O)cc3O)n[nH]c2C)cc1 | 3%
CC(=O)C(C(C)=O)c1c(Cl)c(O)c(O)c2c(C(=O)c3ccccc3)coc12 | -15%
CN1C(=O)CSc2ccc(NC(=O)N3CCC(N4CCCCC4)CC3)cc21 | -2%
C/C(=N\O)C(=O)OC1CC(C)CCC1C(C)C (centres undefined) | -13%
CCS(=O)(=O)CCn1c([N+](=O)[O-])cnc1C | -9%[12.8 µM]
CCc1nc(SCC(=O)NCc2ccco2)c2c3c(sc2n1)CCCC3 | 14%
COc1ccc(Oc2nc(C)nc3c2oc2ccccc23)cc1 | 112%
CC(C)CC(c1nnnn1C1CCCC1)N1CCN(C(=O)c2ccco2)CC1 (centres undefined) | 71%
O=C(COc1ccc(S(=O)(=O)NC2CCCCC2)cc1Cl)NCC1CCCO1 (centres undefined) | 55%
Cc1cc(/C=N/n2cnnc2)c(C)n1-c1ccc(Cl)cc1Cl | 80%
CCOC(=O)c1sc2ncn(CC(=O)NCC3CCCO3)c(=O)c2c1C (centres undefined) | 10%
CCCCn1c(=O)c(C(=O)Nc2nc3ccccc3[nH]2)c(O)c2ccccc21 | -4%
Continued:
SMILES | AmpC nodet inh
O=c1ccnc(S/C=C/c2ccccc2)[nH]1 | -13%
O=C1C2CC=CCC2C(=O)N1c1ccc(Cc2ccncc2)cc1 (centres undefined) | 6%
COC(=O)C1=C(C)NC(C)=C(C(=O)OCCN(C)Cc2ccccc2)[C@@H]1c1cccc([N+](=O)[O-])c1 | 67%
CCOc1ccccc1N(CC(=O)NCc1ccc(OC)cc1)S(C)(=O)=O | 23%
O=C(CN1CCN(CC(=O)Nc2ccc3c(c2)OCO3)CC1)Nc1ccc(F)cc1 | 19%
Cc1nc(-c2ccc(-c3ccc(C(=O)N4CCc5cc6c(cc54)C4(CCN(C)CC4)CO6)cc3)c(C)c2)no1 | 134%&149%
Cc1c(C(=O)O)sc2nc3n(c(=O)c12)CCC(C)CC3 (centres undefined) | -8%
CCCC(c1nnnn1Cc1ccco1)N1CCC(C(N)=O)CC1 (centres undefined) | 24%
C[C@]12CC[C@H]3c4ccc(O)cc4CC[C@@H]3[C@H]1CC[C@@H]2OC(=O)CCC1CCCC1 | 2%[5.75 µM]
O=C(Nc1ccc2oc(-c3ccncc3)nc2c1)c1cccs1 | 12%
O=C(CCCN1Cc2ccccc2C1)c1ccc(F)cc1 | -5%
CC1=C(C(=O)Nc2ccccc2)C(c2ccccn2)n2nc(CCCO)nc2N1 (centres undefined) | 15%
CC(OCC(O)CN(C)CCOc1ccccc1)c1ccc(Cl)cc1 (centres undefined) | 69%
CCn1c(CNC(C)=O)nnc1SCC(=O)c1ccc(Br)cc1 | 24%
Cc1ccc(-c2csc3nnc(SCC(=O)NCc4ccc5c(c4)OCO5)n23)cc1 | 15%
CC(C)CCn1nnnc1C(c1ccccc1F)N1CCC(C(N)=O)CC1 (centres undefined) | 48%
O=C1COc2ccc(C(=O)NCc3ccc4c(c3)OCO4)cc2N1 | -3%
CC(=O)/C=C(\C)Nc1ccc(-c2cnc(-c3ccccc3)o2)cc1 | 7%
Cn1c(=O)c(-c2cccs2)nc2cnc(N3CCNCC3)nc21 | 19%
CCOC(=O)CCS(=O)(=O)c1nc(-c2ccccc2)cc(C(F)(F)F)n1 | 16%
COc1cccc(N2CCN(C(=O)NC3CCCCC3)CC2)c1 | 18%
Cc1cc(=O)oc2c(OS(C)(=O)=O)c(OS(C)(=O)=O)ccc12 | -5%[5.75 µM]
COc1ccc(NC(C)=O)cc1NC(=O)CSc1nnc(-c2ccccn2)n1C | -2%
COc1ccc(N2C(=O)C3C4C=CC(C4)C3C2=O)c(OC)c1 (centres undefined) | 10%
CC1(C)OC(=O)C(=CNc2ccccc2)C(=O)O1 | -1%
Later entries:
SMILES | AmpC nodet inh
CCn1c(N)c(C(=O)NC)sc1=S | 0%
Cc1cc(C)c(C#N)c(SCS(=O)c2ccc(C(C)(C)C)cc2)n1 (centres undefined) | 31%
CC(C)Cn1c(=O)c2ccccc2c2ccccc2c1=O | -12%
S=c1[nH]nc(Cc2ccccc2)n1-c1ccccc1 | 9%
CC1CC(C)CN(c2ncc3c(n2)CC(c2ccccc2)CC3=O)C1 (centres undefined) | 9%
CCN(CC)CCN1C(=O)C(=O)/C(=C(/O)c2ccc(C)cc2)C1c1ccncc1 (centres undefined) | -4%
Cc1noc(C)c1COc1ccc(C(=O)NCc2ccccn2)cc1 | -1%
CCN(CC)CC[n+]1ccc2c(C)c3[nH]c4ccc(O)cc4c3c(C)c2c1 | -5%[5.75 µM]
CCOc1ccccc1C(=O)NCc1ccc2c(c1)OCO2 | 14%
COC(=O)c1ccc2ncccc2c1 | -11%
CCOC(=O)Cc1nnc(NC(=O)CSc2nnc3c4ccccc4n(C)c3n2)s1 | 33%
COc1ccc(OC)c(C2C3CN(C(C)C)CC=C3C(C#N)=C(N)C2(C#N)C#N)c1 (centres undefined) | 47%
Cc1ccc(C(=O)NC2CCS(=O)(=O)C2)cc1S(=O)(=O)N1CCOCC1 (centres undefined) | 7%
Cc1cccn2c(=O)c3cc(C(=O)NCCCN4CCCC4=O)n(C)c3nc12 | 106%
CC(=O)CC(=O)NC(=NC1CCCCC1)Nc1nc(C)cc(C)n1 | 10%
Cc1noc(C)c1COc1ccc(C(=O)OCC(=O)N2CC3(C)CC2CC(C)(C)C3)cc1 (centres undefined) | 114%
COCCn1c(=O)c(-c2ccccc2)nc2cnc(Oc3ccc(OC)cc3)nc21 | 73%
O=C(NCC1CCCO1)c1cc(-c2ccncc2)nc2ccc(S(=O)(=O)N3CCOCC3)cc12 (centres undefined) | 62%
CCCCC(CCC(=O)O)(C(=O)OCC)c1csc(N)n1 (centres undefined) | 8%
CCOC(=O)CN(C(=O)Cn1nnc(-c2ccc(C)cc2)n1)C(CC)C(=O)NC1CCCC1 (centres undefined) | 82%
Cn1c(NCCCN2CCOCC2)nc2c1c(=O)n(Cc1ccc(Cl)c(Cl)c1)c(=O)n2C | 153%
Cc1[nH]c2ccc(-c3nnc(SCC(=O)NCc4ccco4)n3Cc3ccccc3)cc2c1C | 46%
CN(C)c1nc(NCc2ccccc2)nc(Oc2ccc(=O)[nH]n2)n1 | 1%
O=C(c1ccco1)N1CCN(c2cccc(Cl)c2)CC1 | 50%
COc1ccc(NC(=O)c2cc(CC(C)C)on2)cc1OC | 4µM*[single pt active]

Exported as tab-separated lines: part of the list above
SMILES	AmpC nodet inh
COc1cccc(/C(O)=C2/C(=O)C(=O)N(CCN(C)C)C2c2ccccn2)c1 (centres undefined)	8%
COc1cccc(Nc2ncc3nc(C)c(=O)n(CCC#N)c3n2)c1	24%
c1cncc(-c2nn[nH]n2)c1	-14%
Cc1c(C(=O)O)oc2ccc(S(=O)(=O)N3CC(C)CC(C)C3)cc12 (centres undefined)	-10%
O=C(NC1CC1)c1ccc(S(=O)(=O)NC2CCCCCC2)cc1	-12%
Cc1nc(N2CCC(C(N)=O)CC2)c2nnn(Cc3ccccc3)c2n1	28%
O=C(C1CC(=O)N(c2ccc(F)c(Cl)c2)C1)N1CCC2(CC1)OCCO2 (centres undefined)	10%
O=C(Nc1ccc(Oc2ccc(NC(=O)C3CCCO3)cc2)cc1)C1CCCO1 (centres undefined)	41%
Cc1cccc(OCc2nnc(SCC(=O)OC3CCCCC3)o2)c1	8%
O=C(CSc1nc2[nH]ncc2c(=O)n1-c1ccccc1)c1ccc2c(c1)OCCO2	55%
O=C(NC1CCCCC1)NC1(C(=O)N2CCN3CCCC3C2)CCCCC1 (centres undefined)	6%
CCCOC(=O)c1ccc(Oc2c(-c3ccc(O)cc3O)n[nH]c2C)cc1	3%
CC(=O)C(C(C)=O)c1c(Cl)c(O)c(O)c2c(C(=O)c3ccccc3)coc12	-15%
CN1C(=O)CSc2ccc(NC(=O)N3CCC(N4CCCCC4)CC3)cc21	-2%
C/C(=N\O)C(=O)OC1CC(C)CCC1C(C)C (centres undefined)	-13%
CCS(=O)(=O)CCn1c([N+](=O)[O-])cnc1C	-9%[12.8 µM]
CCc1nc(SCC(=O)NCc2ccco2)c2c3c(sc2n1)CCCC3	14%
COc1ccc(Oc2nc(C)nc3c2oc2ccccc23)cc1	112%

The results go on:
SMILES | AmpC nodet inh
Cn1cccc1Cc1nnc(SCC(=O)NCc2ccccc2)n1-c1ccc(F)cc1 | 102%
CCOc1ccccc1C1C(C(N)=O)=C(C)Nc2nc(CCCO)nn21 (centres undefined) | -2%
Cc1cc(C)cc(OCC(=O)Nc2ccccc2C(=O)NCc2ccco2)c1 | -8%
Cc1c(C#N)c2ccccc2n1CC(=O)N1CCCC1 | 4%
Cc1cccc(-c2nc(CSCC(=O)NCCCN3CCOCC3)c(C)o2)c1 | 68%
c1ccc(Oc2cccc(OCCn3cncn3)c2)cc1 | 17%
CCOC(=O)c1ccccc1NC(=O)CSc1nnc(Cc2cccn2C)n1-c1ccc(F)cc1 | 136%
CC1Cc2nc(SCC(=O)Nc3ccc(F)cc3)n(C)c(=O)c2S1 (centres undefined) | -13%
N#Cc1ccccc1-c1ccc2ncnc(NCc3cccnc3)c2c1 | 8%
CCCCn1c(N)c(N(CC)C(=O)c2ccc3c(c2)S(=O)(=O)c2ccccc2C3=O)c(=O)[nH]c1=O | 8%
O=C(Nc1ccc2nc(-c3cccs3)[nH]c2c1)c1cccs1 | -22%
CC1=[N+]([O-])C(C)(C)CC(C)(C)c2ccccc21 | -2%
O=C(O)C(Cc1cc2ccccc2[nH]1)N1C(=O)C2CC=C(Cl)CC2C1=O (centres undefined) | -6%
COC(=O)[C@@]1(Cc2ccc(F)cc2)[C@H]2c3cc(C(=O)N4CCCC4)n(C[C@H](O)CO)c3C[C@H]2CN1C(=O)c1ccccc1 | 157%
O=C(O)CCCNS(=O)(=O)c1ccc(NCc2ccccc2)c(C(=O)O)c1 | 4%
Cc1cc(NC(=O)COC(=O)C2CCN(C(=O)c3ccc(Cl)cc3)CC2)no1 | 10%
O=C(CC1Oc2ccccc2NC1=O)NCCCN1CCOCC1 (centres undefined) | 2%

The list is partial; rates above refer to the full screens.
